# From PubChem
# N370S GC – N370S glucocerebrosidase modulation, Gaucher chaperone candidate | P04062 | N370S GC spleen homogenate, 4MU-glucoside fluorescence | Potency, µM (highest dose often 59.4 µM), for inactives: top-dose activity change, negative = inhibition, hits mostly inhibitors | 0.092% of 330,000 active | AID 2101;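 also: 0% = full enzyme activity and -100% = no enzyme basal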
# FEN1 inh – inhibitors of human flap endonuclease 1; Recombinant FEN1 flap cleavage, fluorescence, 15 min; Potency, µM (titrated, usually from 114 µM), for inactives: top-dose activity change, negative = inhibition, usual class: inhibitors; 0.35% of 390,000 active; AID 588795; also: nearly all actives have a fitted effect of over 65% in size
# Target sequence (P39748 whole entry, looked up): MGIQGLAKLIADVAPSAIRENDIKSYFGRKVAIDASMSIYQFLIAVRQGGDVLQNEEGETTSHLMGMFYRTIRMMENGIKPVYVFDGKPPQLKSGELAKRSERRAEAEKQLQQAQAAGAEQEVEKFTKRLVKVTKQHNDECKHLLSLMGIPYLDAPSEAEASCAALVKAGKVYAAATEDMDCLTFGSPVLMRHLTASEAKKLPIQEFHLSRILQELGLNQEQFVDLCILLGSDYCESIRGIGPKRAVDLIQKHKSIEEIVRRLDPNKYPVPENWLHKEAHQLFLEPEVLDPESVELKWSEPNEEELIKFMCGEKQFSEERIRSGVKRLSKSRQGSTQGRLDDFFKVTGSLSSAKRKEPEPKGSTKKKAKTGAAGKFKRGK
#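 Enzyme 10 nM, 15 min RT preincubation with compound; start with substrate 50 nM final; reads at 0 and 15 min; qHTS titration, four-parameter Hill fit.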
# * marks the source's active call; other numbers are inactive results; ? = inconclusive; nt = not tested or not shown; & = joins results of further samples; [ ] = another dose, or the depositor's remark. Calls follow the shape of the dose curve; as a rule, active = well fitted curve in the direction sought with a large enough effect; inconclusive = small, poorly fitted or top-dose-only effect, or another doubt; inactive = no such curve, though single readings can be large; an effect the other way counts as inactive or inconclusive. Unless noted, % is scaled to controls: 0 for no effect and ±100 for the full control effect; potency is read from the fitted curve at half-maximal effect.
# Every second line gives: N370S GC | FEN1 inh
> O=C(COc1ccc(Cl)cc1Cl)N1CCCCCC1
    8% | 11%
> CN(CC(=O)NCCc1ccccc1)S(=O)(=O)c1ccc(Br)cc1
    -6% | -4%
> COc1ccc(C2c3ccc(O)cc3Oc3ncn(Cc4ccccc4)c(=N)c32)cc1OC (configuration not stated)
    9% | -5%
> O=S(=O)(NC(=S)c1ccccc1)c1ccc(F)cc1
    -7% | 18%
> Cc1c(C(=O)c2ccc(Cl)c([N+](=O)[O-])c2)c2ccccn2c1CCC#N
    16% | -5%
> COc1ccccc1CCC(=O)NC1CCCN(c2ccc(C(F)(F)F)cn2)C1 (configuration not stated)
    -2% | -12%
> CC1=C(c2ccc(C)cc2)S(=O)(=O)N(Cc2ccc(C(=O)NCc3ccccc3F)cc2)C1=O
    nt | -12%
> CC(=O)c1c(C)[nH]c(C(=O)OCC(=O)Nc2cc(Cl)ccc2[N+](=O)[O-])c1C
    -10% | -5%
> CCOC(=O)N1CCN(C(=O)CCCOc2ccccc2)CC1
    6% | -5%
> Cc1nn(C)cc1S(=O)(=O)N1CCN(Cc2cccc(Cl)c2)CC1
    -14% | 5%
> CC(NC(=S)Nc1ccccc1Cl)C(c1cccs1)N1CCCC1 (configuration not stated)
    -3% | -10%
> CCOC(=O)C(NC=O)(NC(C)(C)C)C(=O)OCC
    12% | 2%
> COc1ccc(/C=N/NC(N)=S)cc1OC(=O)c1ccccc1
    -23% | -24%
> O=C(CCc1nnc(-c2ccccc2)o1)NCc1c(F)cccc1F
    2% | 19%
> CCN(CC(=O)Nc1c(F)cccc1F)C(=O)c1ccc(N2CCCCC2)c([N+](=O)[O-])c1
    0% | 1%
> CN(C)S(=O)(=O)c1cccc(NC(=O)c2cccc(S(=O)(=O)N3CCc4ccccc43)c2)c1
    nt | -11%
> Cc1cccc(NC(=O)c2ccc(CN3CC(=O)N4CCCCC4C3=O)cc2)c1C (configuration not stated)
    nt | -5%
> Cc1cc(C)c(NC(=O)CNC(=O)COC(=O)C2CCN(c3ccc(C(F)(F)F)cn3)CC2)c(C)c1
    -10% | 13%
> COc1ccc(S(=O)(=O)N2CCCC2CNC(=O)C(=O)NCc2ccco2)cc1 (configuration not stated)
    1% | 1%
> C=CCNC(=O)/C(C#N)=C/c1ccc(C(=O)O)cc1
    5% | 0%
> COCCNC(=O)Cn1c(=O)n(CCC(=O)NCCc2ccccc2)c(=O)c2ccccc21
    20% | 0%
> COc1ccc(C2(O)CCN(Cc3nnnn3Cc3ccc(F)cc3)CC2)cc1
    2%[2.35 µM] | 2%
> COc1ccc(C(CC(=O)O)NC(=O)Cc2ccccc2)cc1OC (configuration not stated)
    -11% | -3%
> Cc1ccc(C(=O)CCC(=O)OCC(=O)Nc2ccccc2SCC#N)cc1
    nt | 1%
> O=C(COc1ccc(F)cc1)NC1CC1
    -3% | 2%
> Nc1nonc1-c1noc(N2CCCCC2)n1
    5% | -3%
> CCc1cccc(OCCn2nc(C(=O)O)c3ccccc3c2=O)c1
    0% | -18%
> O=C1NC(=O)C(c2cccs2)(c2cccs2)N1
    7% | 15%
> c1ccc2oc(-c3ccc4nc[nH]c4c3)nc2c1
    0% | -9%
> COc1ccccc1N(CC(=O)NCC1CCCO1)C(=O)CCC(=O)Nc1nccs1 (configuration not stated)
    16% | -2%

# In the list so far, 7 contain an aryl methoxy group.
# Every second line gives: N370S GC | FEN1 inh
> COc1ccc(C2c3ccc(O)cc3Oc3ncn(Cc4ccccc4)c(=N)c32)cc1OC (configuration not stated)
    9% | -5%
> COc1ccccc1CCC(=O)NC1CCCN(c2ccc(C(F)(F)F)cn2)C1 (configuration not stated)
    -2% | -12%
> COc1ccc(/C=N/NC(N)=S)cc1OC(=O)c1ccccc1
    -23% | -24%
> COc1ccc(S(=O)(=O)N2CCCC2CNC(=O)C(=O)NCc2ccco2)cc1 (configuration not stated)
    1% | 1%
> COc1ccc(C2(O)CCN(Cc3nnnn3Cc3ccc(F)cc3)CC2)cc1
    2%[2.35 µM] | 2%
> COc1ccc(C(CC(=O)O)NC(=O)Cc2ccccc2)cc1OC (configuration not stated)
    -11% | -3%
> COc1ccccc1N(CC(=O)NCC1CCCO1)C(=O)CCC(=O)Nc1nccs1 (configuration not stated)
    16% | -2%

# Other records:
# Every second line gives: N370S GC | FEN1 inh
> Cc1c(C(=O)N(Cc2cccs2)C2CCS(=O)(=O)C2)oc2ccccc12 (configuration not stated)
    -2% | -23%
> CN1CCC(OC(=O)C23CCC(C)(C(=O)O2)C3(C)C)CC1 (configuration not stated)
    7% | -12%
> O=C(/C=C/c1ccc2c(c1)OCO2)Nc1cc(S(=O)(=O)N2CCOCC2)ccc1N1CCOCC1
    4% | -5%
> CC(C)(CNC(=O)c1cccs1)N1CCOCC1
    nt | 18%
> CC(=O)Nc1ccccc1C(=O)C(=O)NCCc1ccccc1
    -4% | 8%
> CCOC(=O)c1ccc(NC(=S)NNC(=O)c2cc(-c3cccnc3)nc3ccccc23)cc1
    -15% | -8%
> Cc1ccc(-c2noc(-c3cc(C(C)(C)C)nn3Cc3ccccc3)n2)cc1
    2% | -1%
> C=CCN(C(=O)Cc1cccs1)c1nc(-c2ccc(S(C)(=O)=O)cc2)cs1
    -11% | -4%
> COCC(=O)N1CCCC(CNS(=O)(=O)c2ccc(OC)cc2)C1 (configuration not stated)
    9% | 4%
> COc1ccc(CCNC(=O)Cc2c(C)c3ccc(O)c(C)c3oc2=O)cc1OC
    nt | 1%
> CCN(CC)S(=O)(=O)c1ccc(C(=O)NCc2ccc3c(c2)cc(C)n3C)cc1
    -11% | ?
> Cc1nnc(N(C)C(=O)c2cnccn2)s1
    2% | 14%
> O=C(CCCn1c(=O)[nH]c2ccsc2c1=O)N1CCN(Cc2ccc3c(c2)OCO3)CC1
    -2% | 0%
> Cc1cc2c(cc(C(=O)OCC(=O)NCc3ccco3)n2C)s1
    -19% | 11%
> O=C(NCc1ccco1)c1cc(-c2cccnc2)nc2ccccc12
    -2% | -9%
> Cc1ccc(C(=O)O/N=C/c2c(C(F)(F)F)nn(C)c2Sc2ccc(Cl)cc2)cc1
    7% | -3%
> Cc1ccc(-n2c(N)c(C(=O)N3CCOCC3)sc2=S)c(C)c1
    -4% | -4%
> CCOC(=O)c1cccc(N2CC3CNC(=O)C2(C(=O)OC)N3C)c1 (configuration not stated)
    nt | -7%
> Fc1ccc(C(c2nnnn2CCc2ccccc2)N2CCCc3ccccc32)cc1 (configuration not stated)
    0% | 10%
> Cn1c(SCC(=O)N2CCOCC2)nnc1-c1cnccn1
    21% | 3%
> c1ccn2cc(CSc3nnc4ccccn34)nc2c1
    14% | 6%
> O=C1C=C(c2ccc(Cl)cc2)C(=O)N1Nc1ccccc1
    -6% | 1%
> COc1ccc(CN=C2NN=C(c3ccc(Cl)cc3)CS2)cc1
    -12% | -2%
> CCOC(=O)C1=C(N)OC2=C(C(=O)CC(C)(C)C2)C1c1ccccc1OC (configuration not stated)
    -2% | 16%
> O=C(CCc1ccccc1)NNC(=O)c1ccc(Cl)cc1
    1% | 8%
> CC(C)c1ccc(-c2cc(C(=O)NN3CCN(C)CC3)c3ccccc3n2)cc1
    23% | 2%
> COc1ccc(OCCCN2CCc3ccccc3C2)cc1
    -7% | -1%
> CCN1CCCC1CNC(=O)c1csc2c1CCCC2 (configuration not stated)
    -2% | 9%
> CC(=O)c1c(-c2ccc(C)cc2)nc2c3ccccc3ccn12
    29% | -13%
> CC(C)=CC(=O)N1CCC(N2CCC(C(=O)N3CCOCC3)CC2)CC1
    4% | -3%
> CCC(C(=O)NCc1ccc(OC)cc1)n1nc(C)n2c(cc3occc32)c1=O (configuration not stated)
    7% | 8%
> Cc1cccc(-c2nc(CS(=O)CC(=O)N3CCc4ccccc4C3)c(C)o2)c1 (configuration not stated)
    7% | -1%
> COc1ccccc1CNC1CCCc2ccccc21 (configuration not stated)
    1% | 7%
> O=C(CN1CCCC1)Nc1ccccc1C(=O)c1ccccc1
    -1% | -2%
> CC1CC(C)CN(C(=O)COc2ccc(-c3nnco3)cc2)C1 (configuration not stated)
    5% | -4%
> O=C(c1ccc(Br)c(S(=O)(=O)N2CCCCC2)c1)N1CCCCC1
    -1% | 3%
> CCn1c(NCc2ccccc2Cl)nc2ccccc21
    -27% | 5%
> CCn1c(SCC(=O)N/N=C/c2ccccc2OCC(=O)O)nnc1-c1ccc(OC)cc1
    8% | -2%
> CC(C)Cc1nnc(NC(=O)CSc2ncn[nH]2)s1
    8% | 4%
> CCOC(=O)C1(Nc2nccs2)Sc2ccccc2NC1=O (configuration not stated)
    -3% | -9%
> O=C(Nc1ccccc1N1CCOCC1)c1cccc(NS(=O)(=O)c2ccc(F)c(F)c2)c1
    1% | 7%
> Cc1ccc(-c2nnn(CC(=O)N(CC3CCCO3)C(C(=O)NC3CCCCC3)c3ccc(F)cc3)n2)o1 (configuration not stated)
    nt | -9%
> CC(=O)Nc1ccc(SCC(=O)Nc2ccccc2Oc2ccccc2)cc1
    4% | -15%
> Cc1ccccc1-c1ccnc2c(-c3ccc(F)cc3)c(C)nn12
    nt | -7%
> Cc1nn(-c2cccc(Cl)c2)nc1C(=O)O
    4% | 7%
> C=CCSC1=N/C(=C\c2ccc(C)o2)C(=O)S1
    7% | -9%
> COc1ccc2ccccc2c1CNc1nnnn1C
    7% | 0%
> COc1ccc(NC(=O)Nc2ncn(Cc3cccc(C(F)(F)F)c3)n2)cc1OC
    6% | 10%
> CCCCCCCCCn1cc(C(C)=O)c(=O)[nH]c1=O
    -8%[12.8 µM] | 9%
> Cc1ccc(S(=O)(=O)NCCNc2ccc(Br)c(C)c2)cc1
    nt | 18%
> CCNc1nc(NCC)nc(Nn2cnnc2)n1
    2% | -3%
> CC(C)C(=O)Nc1ccc(S(=O)(=O)Nc2nccc(/C=C/c3ccccc3)n2)cc1
    ? | 2%
> C=CCOc1ccc(CNc2nccs2)cc1
    3% | -2%
> COc1ccc(N2CCN(C(=O)c3ccc4c(c3)CCN4S(=O)(=O)c3ccccc3)CC2)cc1
    -23% | -13%&-4%
> O=C(CSc1nnc2c(Cl)cc(Cl)cn12)N1CCN(c2ccc(F)cc2)CC1
    -7% | -5%
> CCN(C(=O)CSc1nnc(SC(C)C)s1)C1CCS(=O)(=O)C1 (configuration not stated)
    nt | 26%
> CCOc1ccc(-c2c(C(=O)N/N=C/c3cccs3)nnn2-c2nonc2N)cc1
    -1% | 10%
> Cc1cc(C)c2c(CC(=O)O)coc2c1
    3% | 0%
> COc1cc(Cl)c(C)cc1NC(C)C(=O)Nc1cc(C(F)(F)F)ccc1N1CCOCC1 (configuration not stated)
    7% | 4%
> COc1ccccc1CNC(=O)CCCn1nc(C)c2c(C)n(-c3ccc(C)cc3)nc2c1=O
    5% | 1%&-9%

# (next part)
# Every second line gives: N370S GC | FEN1 inh
> O=C(CN1CCOCC1)Nc1ccc(S(=O)(=O)NC2CCCCC2)cc1
    -7% | 4%
> O=C(NNC(=S)Nc1ccccc1Cl)c1ccccc1Br
    1% | 2%
> CCOC(=O)CSc1nc(N2CCOCC2)c2c(c1C#N)CC(C)(C)N(C)C2
    -7% | 4%
> CC(C)Cn1c(-c2ccccc2)nc2ccccc2c1=O
    9% | -5%
> O=C(NCc1ccccc1F)C1CCCN1S(=O)(=O)c1ccc(Cl)cc1 (configuration not stated)
    -7% | -1%
> Cc1ccc(CNC(=O)c2ccc3c(c2)N(Cc2ccccc2F)C(=O)c2ccccc2S3(=O)=O)cc1
    nt | -13%
> CCOC(=O)c1cnc2c(C)c(Cl)ccc2c1Nc1ccc(C)cc1C
    nt | 19%
> CCOc1ccc(N2CC(C(=O)Nc3ccc(S(=O)(=O)Nc4ncccn4)cc3)CC2=O)cc1 (configuration not stated)
    1% | 0%
> O=C(CO)N/N=C/c1ccc(Cl)cc1
    3% | -11%
> CCc1ccc(N2C(=O)Nc3ccccc3C2(O)C(=O)N2CCN(c3ccccn3)CC2)cc1 (configuration not stated)
    9% | 4%
> Cc1cc(SCC(=O)Nc2cccc(S(N)(=O)=O)c2)c(C)cc1Br
    -5% | -19%
> Cc1ccc(F)c(NC(=O)CCc2ccccc2)c1
    8% | -4%
> COc1ccc(NC(=O)c2c[nH]n3c(=O)cc(C4CCN(C(=O)OC(C)(C)C)CC4)nc23)cc1Cl
    -2% | ?
> c1ccc(-c2c[n+]3c(n2-c2ccccc2)CCC3)cc1
    -3% | 13%
> CCOC(=O)c1cc(OC(=O)c2ccccc2Br)n(-c2ccccc2)n1
    12% | 4%
> CCCCN1C(=O)C(=O)N(CC(=O)Nc2ccccc2C(C)=O)C1=O
    nt | 0%
> COc1ccc(CC(=O)Nc2c(C(N)=O)oc3ccccc23)cc1OC
    -11% | 11%
> CSc1ccc(Cl)c(C(=O)Nc2ccc(C)cn2)c1
    15% | 3%
> Fc1ccc(Nc2ncnc3onc(-c4cccc(Cl)c4)c23)c(F)c1
    nt | -19%
> O=C(Nc1ccc(S(=O)(=O)N2CCCCC2)cc1)C1CCCCC1
    -5% | -19%
> IC(I)I
    -1% | nt
> O=C(CSc1ncnc2c1nnn2Cc1ccc(F)cc1)NC1CCCCC1
    1% | -10%
> Cc1ccc(C)c(-n2cc[nH]c2=S)c1
    3% | 7%
> CCN(CC)CC(=O)Nc1c(C)cccc1C
    -7% | -9%&20%&-4%
> COC(=O)Nc1nc2ccc(-c3n[nH]c(=O)c4ccccc34)cc2[nH]1
    1% | 8%
> CC1=C(C(=O)N2CCc3ccccc32)C2(CCC(C)CC2)OC1=O (configuration not stated)
    0% | -7%
> COc1ccc(CNC(=O)COC(=O)CC2CCCC2)cc1
    16% | 0%

# This is a subset; most or all hits stand in other tables.
